# GSK3 alpha inh = blocks human GSK-3 alpha kinase. P49840. ADP-Glo luminescence, 60 min. inhibition, % at 10 µM. hit rate 0.1% among 320,000;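 in the data active = inhibition above about 50%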;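 note: GST-tagged GSK-3 alpha with peptide substrate and 25 µM ATP; 0% = DMSO neutral wells and 100% = GW8510 positive control wells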
# RGS4 pot = potentiators or activators of RGS4 | HEK293 M3R/inducible RGS4, carbachol calcium flux Fluo4; hits give low values | B-score at 10 µM | hit rate 0.92% among 310,000;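 active = B-score of the integrated calcium signal more than 4 SD below the library mean, with starting fluorescence not abnormally high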;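 note: negative B-score means reduced calcium response which marks RGS4 activation or potentiation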
#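 Material: Inducible-RGS4 HEK293 cells carrying M3 receptor; also added: carbachol at ECmax as muscarinic agonist stimulus; incubation: compound preincubation 20 min at room temperature before agonist; signal: Fluo4-AM (2 µM) calcium-flux fluorescence, kinetic read; measure: integrated calcium ratio converted to B score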
# KCNK3 block = human KCNK3 channel inhibition, primary screen | O14649 | CHO-KCNK3 thallium flux, FluxOR fluorescence; hits give low values | B-score at 10 µM | hit rate 0.84% among 340,000;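 active = B-score under library mean minus 4 SD, starting fluorescence ratio at most library mean plus 5 SD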;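 note: more negative B-score means stronger inhibition of thallium flux through KCNK3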
# Target sequence (O14649 whole entry, looked up): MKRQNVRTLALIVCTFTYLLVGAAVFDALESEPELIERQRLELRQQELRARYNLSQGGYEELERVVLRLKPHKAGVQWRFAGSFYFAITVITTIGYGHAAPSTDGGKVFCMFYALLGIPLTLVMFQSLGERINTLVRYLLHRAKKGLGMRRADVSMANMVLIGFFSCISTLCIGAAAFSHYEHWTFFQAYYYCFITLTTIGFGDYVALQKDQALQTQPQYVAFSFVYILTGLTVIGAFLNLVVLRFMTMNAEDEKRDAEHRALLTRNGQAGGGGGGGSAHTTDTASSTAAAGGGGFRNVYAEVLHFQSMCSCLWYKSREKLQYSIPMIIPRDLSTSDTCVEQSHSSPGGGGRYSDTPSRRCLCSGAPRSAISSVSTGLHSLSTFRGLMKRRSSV
# GSK3beta inhib = blocks human GSK3beta kinase activity; P49841; GST-GSK3beta kinase, ADP-Glo luminescence, 60 min; hits give low values; activity score (negative = inhibition), % at 10 µM; hit rate 0.038% among 300,000; AID 2097;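 active = more than half of replicate wells score below -50%, meaning over 50% inhibition versus plate controls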;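 note: 0% = median DMSO wells and -100% = median GW8510 positive control wells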
#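 Test system: GST-fused GSK3beta enzyme, cell-free | Quantity: 1.6 ng GST-GSK3beta enzyme per well | Reagent: 25 µM ATP with peptide substrate | Schedule: 60 min enzyme reaction, room temperature | Signal: Luminescent ADP-Glo measurement of ADP formed | Read-out basis: Score relative to plate controls | Control set: DMSO and 20 µM GW8510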
# KCNK9 block = blocks the human KCNK9 two-pore domain potassium channel. Q9NPC2. HEK293 KCNK9, FluxOR thallium flux fluorescence; hits give low values. B-score at 10 µM. hit rate 1.2% among 310,000;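 active = ratio B-score over 3 SD below the library mean, with starting fluorescence within 5 SD of its mean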;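 note: negative B-score means less thallium flux so channel inhibition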
# Target sequence (Q9NPC2 whole entry, looked up, the tested form may be a part): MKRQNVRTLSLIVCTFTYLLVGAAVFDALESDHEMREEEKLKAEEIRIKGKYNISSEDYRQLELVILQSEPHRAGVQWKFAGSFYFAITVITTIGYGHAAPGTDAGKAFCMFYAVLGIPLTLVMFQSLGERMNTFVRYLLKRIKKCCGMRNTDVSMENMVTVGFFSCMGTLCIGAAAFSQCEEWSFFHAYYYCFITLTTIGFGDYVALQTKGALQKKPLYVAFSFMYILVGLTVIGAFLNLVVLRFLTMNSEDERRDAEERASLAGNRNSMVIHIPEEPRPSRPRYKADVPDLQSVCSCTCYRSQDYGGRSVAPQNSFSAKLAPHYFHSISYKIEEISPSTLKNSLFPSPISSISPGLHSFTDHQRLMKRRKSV
# KCNQ1 block = blocks the human KCNQ1 potassium channel; CHO-K1 KCNQ1, FluxOR thallium flux fluorescence; hits give high values; B-score at 10 µM; hit rate 1.3% among 310,000; AID 2642;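 active = compounds whose thallium flux B-score, printed positive for inhibition, exceeds three library SD while starting fluorescence stays within three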;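 note: channel opened by potassium depolarization with thallium stimulus after 20 min compound exposure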
# RGS4 block = human RGS4 inhibition. AID 463165. B-score at 10 µM. hit rate 0.45% among 310,000. HEK293 M3R/RGS4 inducible, Fluo-4 calcium flux; hits give high values; triggered by carbachol at its EC20;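 active = B-score, a plate-corrected calcium signal, over three deviations above library mean, with baseline fluorescence within five deviations of library mean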;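 note: RGS4 expression induced by doxycycline in cells with stable M3 receptor; B-score is computed from the integrated fluorescence ratio over baseline after carbachol; higher B-score means a larger calcium signal and so more RGS4 inhibition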
# Target sequence (P49798 whole entry, looked up): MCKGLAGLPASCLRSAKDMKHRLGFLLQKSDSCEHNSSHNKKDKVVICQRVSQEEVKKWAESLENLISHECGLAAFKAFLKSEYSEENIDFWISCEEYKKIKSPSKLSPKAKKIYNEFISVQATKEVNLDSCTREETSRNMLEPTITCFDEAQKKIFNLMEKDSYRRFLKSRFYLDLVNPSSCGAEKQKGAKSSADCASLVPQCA
# DYRK1A inh = inhibitors of rat Dyrk1A kinase; Q63470; ADP-Glo luminescence, NFATc1 peptide; inhibition, % at 12.5 µM; hit rate 0.43% among 310,000; AID 504441; in the data active = inhibition above about 50%;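 note: plate controls were vehicle with enzyme for no effect and no enzyme for full effect; many of its hits are not listed in these tables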
# KCNQ1 act = potentiates or activates the human KCNQ1 potassium channel. B-score at 10 µM. CHO-K1 KCNQ1, thallium flux FluxOR fluorescence; hits give high values. AID 2648. P51787. hit rate 0.35% among 310,000;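 active = fluorescence ratio B-score, a plate-corrected score, at least three library SD, with initial intensity B-score within 5 SD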
#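 Material: CHO-K1 cells stably expressing KCNQ1. Medium: assay buffer for compound exposure, DMSO matched across wells. Reagent: K+/Tl+ depolarizing stimulus. Compound dosing: single-concentration screen. Times: 37 °C overnight plating, 90-min dark dye load, 20-min compound pretreatment. Technique: FluxOR Tl+ flux fluorescence.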
# PolyA inh = inhibitors of polyadenylation in S. cerevisiae; AID 1875; S. cerevisiae SKY197-pL101 polyadenylation reporter, beta-gal luminescence; efflux-impaired pdr1/pdr3 knockout yeast; score 100 = 6 SD above DMSO; hit rate 0.02% among 300,000; calls only at 12 µM;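 active = lowest replicate activity score at least 50, where 100 means six control SD above control mean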;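 note: yeast exposed to compound for 9 h at 30 °C; higher score means more reporter readthrough which indicates perturbed polyadenylation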
# * marks the source's active call; other numbers are inactive results; i = inactive; . = no result given; & = joins results of further samples. Some of the compounds tested (hit frequency here may not be typical).
SMILES	GSK3 alpha inh	RGS4 pot	KCNK3 block	GSK3beta inhib	KCNK9 block	KCNQ1 block	RGS4 block	DYRK1A inh	KCNQ1 act	PolyA inh
CCc1nnc(NS(=O)(=O)c2ccc(NS(=O)(=O)c3ccccc3[N+](=O)[O-])cc2)s1	-1.0	i	i	-0.9	i	i	i	2.0	i	i
CCc1ccc(OCC(=O)NC(=S)Nc2ccc(C(=O)O)cc2)cc1	11.7	i	i	-5.8	i	i	i	-5.5	i	i
Cc1cc(C)n(CC(=O)N/N=C/c2cc(Br)cc([N+](=O)[O-])c2O)n1	-3.0	i	i	-2.3	i	i	i	0.3	i	i
COc1ccc(CN2CCN(Cc3nc4ccccc4s3)CC2CCO)c(C)c1C (configuration not stated)	-0.5	i	i	-1.5	i	i	i	-1.6	i	i
O=C(Oc1ccccc1)c1c(Cl)cccc1P(=O)(O)O	.	i	i	-4.2	i	i	i	-5.7	i	i
Cc1ccccc1C(OCCN(C)C)c1ccccc1 (configuration not stated)	-1.0	i	i	-1.5	i	i	i	5.0&2.9	i	i
COc1ccc(S(=O)(=O)n2c(C)nc3ccccc32)cc1C	-4.7	i	i	5.1	i	i	i	0.3	i	i
CCCC(O)(CCN1CCCCC1)c1ccc(OCC)cc1 (configuration not stated)	.	i	i	-0.1	i	i	i	0.0	i	i
O=C(O)[C@H](O)[C@@H](O)C(=O)O	-1.6	.	i	.	.	.	.	4.3	.	.
CC(=O)[C@H]1CC[C@H]2[C@@H]3CCC4=CC(=O)CC[C@]4(C)[C@H]3CC[C@]12C	5.2&7.4	i	i	-0.8	i	i	i	3.9&6.9	i	i
CCOc1cc(C2C(C(=O)c3ccco3)=C(O)C(=O)N2CC2CCCO2)ccc1O (configuration not stated)	-0.1	i	i	3.3	i	i	i	2.3	i	i
O=C(Nc1cccnc1)c1cccc(F)c1	-0.2	i	i	-1.7	i	i	i	-2.9	i	i
O=C(Nc1nc2ccccc2c(=O)s1)c1ccco1	2.2	i	i	3.9	i	i	i	0.3	i	i
O=C(NCc1ccc(F)cc1)C(=O)c1cn(CC(=O)N2CCCC2)c2ccccc12	1.5	i	i	0.0	i	i	i	-3.4	i	i
COc1ccc(C(=O)NCC(=O)N2CCCC(C(F)(F)F)C2)cc1OC (configuration not stated)	2.8	i	i	7.0	i	i	i	12.7	i	i
Cc1ccnc(SCC(=O)Nc2sc3c(c2C#N)CCC(C(C)(C)C)C3)n1 (configuration not stated)	0.0	i	i	1.5	i	i	i	-3.7	i	i
COc1cccc(OCc2cc(C(=O)N(C)CCOc3ccc(C)cc3)no2)c1	.	i	i	-0.1	i	i	i	-2.9	i	i
COc1ccc(C(=O)Nc2ccc(N3CCCC3)cc2)cc1OC	2.6	i	i	-7.7	i	i	i	3.8	i	i
COc1ccc(Cl)cc1NC(=O)C[n+]1cccc(C)c1	1.5	i	i	-1.5	i	i	i	2.9	i	i
Cc1ccc(NC(=O)Cn2nc(C)c3ccccc3c2=O)cc1F	2.6	i	i	0.3	i	i	i	2.2	i	i
CN(C)C(=O)C(CCN1CCC(O)(c2ccc(Cl)cc2)CC1)(c1ccccc1)c1ccccc1	-2.7	i	i	-1.0	i	i	i	-7.7	i	i
CC(C)NC[C@H](O)COc1ccc(CC(N)=O)cc1	0.5	.	i	.	.	.	.	9.2	.	.
Cc1ccc(NC(=O)CN(C)C(=O)CNC(=O)c2cccs2)cc1	-1.7	i	i	1.9	i	i	i	.	i	i
CCC(C)C(NC(=O)OC(C)(C)C)C(=O)NCc1ccco1 (configuration not stated)	-0.1	i	i	1.2	i	i	i	-4.0	i	i
CC(=O)OCC(=O)[C@@]1(O)CC[C@H]2[C@@H]3CCC4=CC(=O)C=C[C@]4(C)[C@H]3[C@@H](O)C[C@@]21C	-2.8	i	i	4.8	i	i	i	2.9	i	i
CCc1ccc(OCc2nnc(SCc3ccc(C(=O)O)cc3)o2)cc1	-2.2	i	i	-0.9	i	i	i	-2.1	i	i
Cc1cccc(C(=O)NCCC(=O)Nc2ccc(C)c(F)c2)c1	-0.6	i	i	-0.4	i	i	i	-3.6	i	i
O=C1OCCN1/N=C/c1ccc([N+](=O)[O-])o1	-2.9	i	i	2.8	i	i	i	8.4	i	i
C#C[C@]1(O)CCC2C3CCC4=CC(=O)CC[C@@H]4C3CC[C@@]21C (some centres not stated)	-0.4	i	i	1.2	i	i	i	-4.3	i	i
CC(=O)NC[C@H]1CN(c2ccc(N3CCOCC3)c(F)c2)C(=O)O1	-1.6	i	.	-0.4	i	i	i	.	i	i

# Only KCNK3 block, DYRK1A inh and KCNQ1 act, for some of the entries so far:
molecule	KCNK3 block	DYRK1A inh	KCNQ1 act
COc1ccc(Cl)cc1NC(=O)C[n+]1cccc(C)c1	i	2.9	i
Cc1ccc(NC(=O)Cn2nc(C)c3ccccc3c2=O)cc1F	i	2.2	i

# (cont.)
SMILES	GSK3 alpha inh	RGS4 pot	KCNK3 block	GSK3beta inhib	KCNK9 block	KCNQ1 block	RGS4 block	DYRK1A inh	KCNQ1 act	PolyA inh
O=C(NCC1CCCCN1)c1cc(OCC(F)(F)F)ccc1OCC(F)(F)F (configuration not stated)	-1.7	i	i	5.1	i	i	i	19.7	i	i
NCCCC(N)(C(=O)O)C(F)F (configuration not stated)	-2.5	i	i	2.8	i	i	i	2.5	i	i
COc1ccccc1NS(=O)(=O)c1cc(NC(=O)CCNC(C)=O)ccc1C	0.4	i	i	-0.3	i	i	i	-8.3	i	i
CCC[C@@H]1C[C@@H](C(=O)N[C@@H](C2O[C@H](SC)[C@H](O)[C@@H](O)[C@H]2O)[C@H](C)Cl)N(C)C1 (some centres not stated)	-3.0	i	.	-4.3	i	i	i	.	i	i
CN1CCCCC1CCN1c2ccccc2Sc2ccc(S(C)=O)cc21 (configuration not stated)	0.2	-7.28*	i	0.1	i	i	i	6.6	i	i
Cc1ccc(C(=O)CCC(=O)Nc2cccc(C(F)(F)F)c2)cc1	-5.4	i	i	2.6	i	i	i	5.1	i	i
O=C(Nc1nc2ccccc2n1CCN1CCOCC1)c1ccc(Cn2cc([N+](=O)[O-])cn2)o1	1.8	i	i	2.7	i	i	i	6.9	i	i
CC/C(=N\n1nnnc1Nc1ccccc1)c1ccccc1	-0.9	i	i	1.2	i	i	i	3.3	i	i
C[C@]12CC[C@@H]3c4ccc(O)cc4CC[C@H]3[C@@H]1CCC2=O	-6.9	i	i	-1.4	i	i	i	21.4	i	i
CC(=O)Oc1cc(C(C)C)c(OCCN(C)C)cc1C	-2.4	i	i	-1.8	i	i	i	-3.9	i	i
O=C1CN(/N=C/c2ccc([N+](=O)[O-])o2)C(=O)N1	3.0	i	.	-2.3	i	i	i	.	i	i
CC1C/C(=N/O)C(C)CN1 (configuration not stated)	-2.2	i	i	-0.2	i	i	i	-6.7	i	i
CC(=O)[C@H]1CCC2C3CC=C4C[C@@H](O)CC[C@]4(C)C3CC[C@@]21C (some centres not stated)	-1.0	.	i	.	.	.	.	.	.	.
Nc1ccc(S(N)(=O)=O)cc1	-0.1	i	i	-5.4	i	i	i	-2.0	i	i
COC(=O)c1ccc(N=C2S/C(=C\c3cc(C)n(-c4cccnc4)c3C)C(=O)N2C)cc1	-2.5	i	i	-14.3	i	i	i	2.2	i	i
CC(C)c1ccc2oc3nc(N)c(C(=O)O)cc3c(=O)c2c1	4.8	i	.	1.7	i	i	i	.	i	i
Nc1c(Br)cc(Br)cc1CNC1CCC(O)CC1 (configuration not stated)	-2.9&1.2	i	i	3.1&2.8	i	i	i	10.1&1.6	i	i
COc1ccccc1NS(=O)(=O)c1cc(C(=O)N2CC(C)CC(C)C2)ccc1C (configuration not stated)	1.0	i	i	-3.5	i	i	i	4.1	i	i
Cc1ccc(NC(=O)C2CCC2)cc1S(=O)(=O)N1CCCCCC1	-0.9	i	i	-2.1	i	i	i	-1.2	i	i
CCCCn1c(N)c(N(Cc2ccccc2OC)C(=O)CN2C(=O)NC3(CCCC3)C2=O)c(=O)[nH]c1=O	1.2	i	i	.	i	i	i	-4.5	i	i
CC(=O)Nc1nc(CCN2C(=O)c3ccccc3C2=O)cs1	3.5	i	i	-2.7	i	i	i	.	i	i
CCN(c1ccccc1)S(=O)(=O)c1ccc(C(=O)NCC(c2cccs2)N(C)C)cc1 (configuration not stated)	-1.7	i	i	1.0	i	i	i	.	i	i
CCN(CC)C(=S)SSC(=S)N(CC)CC	-0.5	i	i	0.5	i	i	i	6.4	i	i
Cc1cnc(C(=O)NCCc2ccc(S(=O)(=O)NC(=O)NC3CCCCC3)cc2)cn1	0.9	i	i	-0.9	i	i	i	9.7	i	i
CNNCc1ccc(C(=O)NC(C)C)cc1	-1.8	i	i	2.0	i	i	i	14.7	i	i
O=C(NCc1ccccc1Cl)c1ccccc1Oc1ccccc1	-0.9	i	i	0.0	i	i	i	-2.2	i	i
C/C(=N/OC(=O)c1ccccc1)c1oc(C)nc1C	8.3	i	i	-5.5	i	i	i	.	i	i
COc1ccccc1N=CC=C1OC(C)(C)C(C)(C)O1	0.7	i	i	-3.9	i	i	i	2.0	i	i
CC(C)n1c(/C=C/[C@@H](O)C[C@@H](O)CC(=O)O)c(-c2ccc(F)cc2)c2ccccc21	-0.3	i	i	-8.6	i	i	i	-8.1	i	i
CN1CCN(CCCN2c3ccccc3Sc3ccc(Cl)cc32)CC1	12.2&7.4	i	i	-7.1	i	i	i	2.5	i	i
CCCNCC(O)COc1ccccc1C(=O)CCc1ccccc1 (configuration not stated)	0.1	i	i	0.0	i	i	i	-0.4	i	i
O=C(O)c1ccccc1O	-2.1	i	i	-0.9	i	i	i	4.2	i	i
CC(Sc1nc2ccccc2s1)C(=O)N1CCOCC1 (configuration not stated)	-6.7	i	i	0.6	i	i	i	-4.6	i	i
O=c1[nH]c(=O)n(C2C[C@H](O)[C@@H](CO)O2)cc1C(F)(F)F (some centres not stated)	-2.2	.	i	.	.	.	.	-5.2	.	.

# Bioassay records: PubChem, several laboratories
